# Screens as filed in PubChem.
# NPYLR7 ag = activates Aedes aegypti NPYLR7 receptor; HEK293T NPYLR7/Galpha15, GCaMP6s calcium fluorescence; activation, % at 10 µM; 270,000 compounds, 0.15% hits; AID 1259423; in the data active = activation above about 40%;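 also: 0% = vehicle and 100% = reference agonist at the receptor; some compounds past the cut are filed as inactive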
# NPYLR7 ag max-min = also measured in NPYLR7 ag; calls as there; activation, %; measured here: Max-Min RFU normalised activation; some inactives read as strong as hits;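 span of the calcium signal over five minutes; 0% = vehicle and 100% = native peptide agonist; compound fluorescence can raise it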
# Starred values were filed as active, the others as inactive; & = joins results of further samples.
# Every second line gives: NPYLR7 ag, NPYLR7 ag max-min
O=c1[nH]nc(-c2ccco2)c2c1Nc1nnnn1C2c1ccc(Br)cc1 (stereo not given)
→ -6, -5
CCCCCn1c(N2CCN(Cc3ccccc3F)CC2)nc2c1c(=O)[nH]c(=O)n2C
→ 4, 4
Cc1nn(CC(=O)N(C(C)C)C(C)C)c(C)c1S(=O)(=O)N(C)C
→ 3, 1
Clc1ccccc1-c1nc(N2CCCCC2)nc2ccc(Br)cc12
→ -4, -7
CCCCCCc1nc(C(N)=O)c2[nH]c(=O)n(-c3ccc(C)c(C)c3)c2n1
→ 13, 6
Cc1ccc(C)c(OC(C)C(=O)N(C)CC2(CO)CCOCC2)c1 (stereo not given)
→ -7, -8
COc1ccc(-c2nc3ccc(C)cn3c2NC(=O)c2cccc(C(F)(F)F)c2)cc1OC
→ -5, 2
COc1cc(C=C2SC(=S)N(CCCN3CCOCC3)C2=O)cc(Cl)c1OC
→ -2, 27
CC1CCN(C(=O)C(C2CCCC2)N2CCN(C(=O)Nc3ccc(F)cc3)CC2)CC1 (stereo not given)
→ -5, -7
O=C(/C=C/c1cc(Cl)c2c(c1)OCO2)Nc1ccc(N2CCCC2)nc1
→ 1, -2
O=c1c2cnc3nc(-c4ccc(Cl)cc4)nn3c2ccn1CCc1cnc[nH]1
→ -1, 5
CC(C)[C@H](NC(=O)Nc1ccc(Cl)c(C(F)(F)F)c1)c1nnc2c(C(F)(F)F)cccn12
→ 3, 1
COCCCN(CC(=O)N1CCc2sccc2C1COc1ccccc1C)C(=O)c1ccco1 (stereo not given)
→ -4, 1
Cc1ccc(CN2CCCN(C(=O)Cn3cccc(C(F)(F)F)c3=O)CC2)cc1
→ 5, 4
CCC(NCc1ccc2ccccc2c1)c1ccc2c(c1)OCCO2 (stereo not given)
→ 0, 0
Cc1ccc(C(=O)NC(=S)Nc2ccc(C)cn2)cc1
→ 9, 12
COc1ccc(C(=O)N2N=C(c3cccs3)CC2c2ccc3nccnc3c2)cc1 (stereo not given)
→ 1, 6
CC(C#N)OC(=O)Cn1cc(C(F)(F)F)ccc1=O (stereo not given)
→ 9, 10
N#Cc1cc(F)ccc1NCCOCC1CC1
→ 11, 2
CN1C(=O)C2CN(CCc3ccccc3)CNC2N(C)C1=O (stereo not given)
→ -2, -7
COc1ccc2c([N+](=O)[O-])c(N3CCCC3)[nH]c2c1
→ -3, -2
CCN(CC)C(=O)Oc1ccc2c(ccn2Cc2ccccc2OC(F)(F)F)c1-c1ccc(OC)c(OC)c1
→ 12, 2
COc1ccc(CCN(C)C(=O)c2cc3n(n2)CCN(Cc2ccc(Cl)c(Cl)c2)C3=O)cc1OC
→ 5, 15
O=c1c2cnc(N3CCOCC3)nc2ccn1-c1ccc(Cl)cc1Cl
→ -12, -17
CC1(C(=O)NS(=O)(=O)c2ccccc2Cl)CCN1C(=O)c1ccco1 (stereo not given)
→ 2, 1
CSc1ccc(-c2ccc3c(c2)C(=O)N2C[C@@H](NC(=O)c4cnccn4)C[C@H]2C(=O)N3)cc1
→ -10, -15
COc1cc(OC)cc(C(=O)Nc2cccc(C3SCC(=O)N3c3ccc(C(F)(F)F)cc3)c2)c1 (stereo not given)
→ 11, 16
CCOc1ccc(C(=O)Nc2cccnc2)cc1[N+](=O)[O-]
→ 1, 9
COc1ccc(CNC(=O)N2CCN(c3ccccc3F)CC2)cn1
→ 7, 6
CN(Cc1noc(-c2ccccc2)n1)Cc1ncccc1C(=O)O
→ 6, 3

# Looked up above.
# CC(C#N)OC(=O)Cn1cc(C(F)(F)F)ccc1=O (stereo not given) in NPYLR7 ag max-min shows 10
# COc1cc(OC)cc(C(=O)Nc2cccc(C3SCC(=O)N3c3ccc(C(F)(F)F)cc3)c2)c1 (stereo not given) in NPYLR7 ag shows 11
# CC1(C(=O)NS(=O)(=O)c2ccccc2Cl)CCN1C(=O)c1ccco1 (stereo not given) in NPYLR7 ag shows 2
# CCCCCCc1nc(C(N)=O)c2[nH]c(=O)n(-c3ccc(C)c(C)c3)c2n1 in NPYLR7 ag shows 13
# CN1C(=O)C2CN(CCc3ccccc3)CNC2N(C)C1=O (stereo not given) in NPYLR7 ag shows -2

# Remaining list, next part:
# Every second line gives: NPYLR7 ag, NPYLR7 ag max-min
CCOC(=O)c1ccc(NC(=O)N2CCC3(CC2)SCCN3C(=O)c2cccc(C)c2)cc1
→ -4, 10
CCOc1cc(/C=N\n2nnnc2N)ccc1O
→ -11, -14
Cc1ccc(CN(CCc2ccccc2)C(=O)CN(C(=O)C2CC2)C2CCCCC2)o1
→ -4, -1
CCCN(C)c1cc(-c2ccccc2)nc(SCc2cccc(C(=O)N3CCOCC3)c2)n1
→ 5, -6
Cc1onc(-c2ccccc2)c1C(=O)N1Cc2cnc(CC(C)C)nc2C1
→ 5, 3
O=C(O)C1CCCN(C(=O)c2cccc3c2OCO3)C1 (stereo not given)
→ -5, -5
O=C(Nc1ccc(-c2noc(-c3ccccc3Br)n2)cc1)c1cccc(Cl)c1
→ -4, -11
FC(F)(F)c1ccc(CNCC2CC(c3ccccc3Cl)=NO2)cc1 (stereo not given)
→ -1, -6
CC(C)n1cc(C(=O)NCc2cccnc2N(C)C2CCCCC2)cn1
→ 5, 2
COc1ccc(Cc2noc(COc3c(Cl)cccc3Cl)n2)cc1OC
→ -3, -2
Cc1ccccc1-n1[nH]c2c3c(ccc2c1=O)C(=O)c1ccccc1C3=O
→ -3, -1
N[n+]1cnn(CC(=O)c2ccc(Cl)cc2)c1
→ -9, -14
COc1ccccc1-c1ccc(NC2COC3(CCCC3)C2)nn1 (stereo not given)
→ 20, 12
CCOc1ccc(-n2cnnc2)cc1N
→ 9, 1
Cc1cc(Oc2ccc(Cl)cc2)nc(SCc2ccc(F)c(F)c2)n1
→ 1, 11
OCC1(Cc2ccccc2Cl)CCN(Cc2cccc(F)c2F)CC1
→ -9&12, -8&6
Cc1cccc(NC(=O)CCC2CCN(C(=O)CN3CCOC3=O)CC2)c1
→ 10&11, 7&4
Cc1nnc(NCC2(N3CCOCC3)CCCCC2)c(C#N)c1C
→ 0, -4
CC1CCc2ccccc2N1CCN=C1NS(=O)(=O)c2ccccc21 (stereo not given)
→ -3, -3
CC(=O)Nc1cccc(NC(=O)c2c(-c3ccccc3Cl)noc2C)c1
→ 5, 8
c1ccc2c(c1)nc(CN1CCOCC1)n1c3ccccc3nc21
→ -7, -9
COC(=O)C1=C(C)NC(=S)NC1c1ccc(N(C)C)cc1 (stereo not given)
→ 0, 6
CC1CN(Cn2nc(Cc3ccccc3)n(-c3ccccc3)c2=S)CCO1 (stereo not given)
→ 6&-1, 1&10
COc1nn(C)cc1C(=O)Nc1nc2c(SC)cccc2s1
→ 31, 20
CCc1nc(C)ncc1C(=O)N1CC(=O)N(C)c2ccccc21
→ 2, 0
CCc1ccc(CN2CC[C@@H](c3ccc4c(c3)OCO4)[C@H](O)C2)nc1
→ 12, 9
c1ccc(C(c2ccccc2)c2noc3c2CN(CCn2cncn2)CC3)cc1
→ -6, -10
OCC1(O)CCCN(Cc2ccccc2-c2ccccc2)CC1 (stereo not given)
→ 3, 2
Cc1cc(C(=O)CN2C(=O)NC3(CCC(C(C)(C)C)CC3)C2=O)c(C)n1-c1nccs1 (stereo not given)
→ -2, -5
CCCN1C(=O)C(C)(C)COc2cc(NC(=O)NCCc3ccccc3)ccc21
→ -10, -13
CCCN(Cc1ccccc1O)C(=O)CNC(=O)/C=C/c1ccco1
→ -5, -5
Cc1ccc(OCCn2c(C)c(/C=N\n3cnnc3)c3ccccc32)c(C)c1
→ 1, 2
CC(C(=O)N1CCC2(C1)NC(=O)NC2=O)N1CCCCCC1 (stereo not given)
→ 3, 2
CC(C)NC(=O)NC1CCN(c2ccccc2C(=O)N(C)Cc2ccco2)CC1
→ 0, 14
CN(C)c1ccc(NC(=O)C2CCC2)cc1CN(CC1CCCO1)S(=O)(=O)c1cccc(Cl)c1 (stereo not given)
→ 2, 20
CC(Nc1ccc(OCc2ccccc2)cc1)C(=O)NC1(C#N)CCCCC1 (stereo not given)
→ -2, -1
O=C(CSc1nc(=O)n(CCO)c2c1CCCC2)NCCc1ccccc1
→ -3, -11
CCOC(=O)CNC(=O)N=C1NC(=O)C(C(C)C)O1 (stereo not given)
→ 2, -1
COC(=O)Cn1c(C2CC(=O)N(c3ccc(OC)cc3)C2)nc2ccccc21 (stereo not given)
→ 4, -2
COc1cccc(-c2nc3ccccn3c2NC(=O)C(C)(C)C)c1
→ -14, -13
Fc1cccc(-c2nc(CN3CCNCC3)no2)c1
→ 25, 19
O=C(Nc1ccc(C2SCC(=O)N2c2ccc(F)cc2F)cc1)c1ccco1 (stereo not given)
→ -6, 5
O=C(COC(=O)c1cccs1)NCc1cccc(Cl)c1
→ 3, 0
CCn1c(O)c(N=NC(=O)C(O)(c2ccccc2)c2ccccc2)c2ccccc21
→ 0, 1
CCOc1ccc(-n2nc3cc(C)c(NC(=O)C(Cl)(Cl)Cl)cc3n2)cc1
→ 1, -3
COc1cccc(C(=O)N2CCN(c3ccc(-n4nc(C)cc4C)nn3)CC2)c1
→ -6, -13
Cc1ccncc1NS(=O)(=O)c1c(F)cccc1Br
→ -23, -23
O=C(N[C@@H]1CCCCC1NC(=O)C1CCN(C(=O)c2ccc(Cl)cc2)CC1)c1ccccc1 (stereo not given in full)
→ -2, 7
Cc1nc(SCC(=O)N2C[C@]3(C)C[C@H]2CC(C)(C)C3)n[nH]1
→ 0, -3
CCCNC(=O)N(CCCOC)CC(=O)N1CCc2sccc2C1COc1ccccc1F (stereo not given)
→ -4, -1

# For reference, part of the list above.
# Every second line gives: NPYLR7 ag, NPYLR7 ag max-min
Cc1nc(SCC(=O)N2C[C@]3(C)C[C@H]2CC(C)(C)C3)n[nH]1
→ 0, -3
CCCNC(=O)N(CCCOC)CC(=O)N1CCc2sccc2C1COc1ccccc1F (stereo not given)
→ -4, -1

# Additional results follow.
# Every second line gives: NPYLR7 ag, NPYLR7 ag max-min
CC(=O)c1cccc(NC(=O)Nc2cccc3[nH]c(COCCO)nc23)c1
→ 1, 19
COCC(=O)Nc1ccc(-c2c(-c3ccc(F)cc3)nn(-c3ccc(F)cc3)c2OC(C)=O)cc1
→ -2, 5
CC(C)c1cc(C(=O)N2CCC(C(N)=O)CC2)nn1-c1nc2ccccc2s1
→ 15, 4
Cc1cc(-c2c(-c3ccccc3)ncn2CCN2CCCC(CO)C2)n[nH]1 (stereo not given)
→ 14, 9
CCCN1C(=O)c2ccc(C(=O)N(C)Cc3ccc(CC)cn3)cc2C1=O
→ 7, 3
COc1ccc(CN(Cc2ccco2)C(=O)Nc2cccc3ccccc23)cc1OS(C)(=O)=O
→ 6, 16
Cc1cccc(CSc2nnc(CN)n2-c2cc(Cl)ccc2C)c1
→ 8, 9
COCCCn1c(C)cn2c3c(=O)[nH]c(=O)n(C)c3nc12
→ 5, 3
O=C(Nc1ccccc1)c1cc(Br)ccc1F
→ -2, -6
C=CCc1c(C)nc(SC)nc1Nc1ccc(C(C)=O)cc1
→ -12, -16
Cc1cc(C)c2oc(=O)n(C3CCN(C(=O)c4cccc5c4-c4ccccc4C5=O)CC3)c2c1
→ 4, 2
O=C(CCn1c(=O)oc2ccccc21)N1CCc2ccccc21
→ -1, 4
Cc1nc(NC(=O)C(C)C)ccc1-c1ccccc1CN1CCOCC1
→ 9, 6
COC(=O)c1ccc(N)s1
→ 6, 7
COCCNC(=O)C1(C)CCCN(Cc2nccn2C)C1 (stereo not given)
→ -1, -2
O=C1CCC(C(=O)N2CCN(c3ccccc3)C(=O)C2)CN1Cc1ccc(Cl)cc1 (stereo not given)
→ 21, 9
COCC(=O)N(Cc1ccco1)Cc1cc(NC(=O)c2ccccc2Cl)ccc1N(C)C
→ 4, 11
CC(C)c1nc(CN(C)C(=O)c2ccc3c(c2)OCC(=O)N3)cs1
→ 16, 11
Cc1cc(=O)n2c3c(cc(S(=O)(=O)NC(C)(C)C)cc13)CCC2
→ -3, -3
O=C(Nc1ccc(F)cc1)N1CCc2ccccc2C1c1ccccc1Cl (stereo not given)
→ 11, 7
CC1(C)CC(Nc2nccc(C(F)(F)F)n2)CC(C)(C)N1
→ 4, 4
CCC(C)N(Cc1cccc(OS(=O)(=O)c2cccc(C(F)(F)F)c2)c1)C(=O)c1ccc(C)c([N+](=O)[O-])c1 (stereo not given)
→ 25, 23
Nc1c2c(nc3sc4c(c13)CCCC4)CCCCCC2
→ 18, 11
CCC(C)N(Cc1ccc(OS(=O)(=O)c2ccc(NC(C)=O)cc2)cc1)C(=O)c1ccccc1F (stereo not given)
→ 18, 26
CC(=O)c1ccc(C(=O)N(Cc2ccccn2)c2nc3c(C)c(C)ccc3s2)cc1
→ 2, -6
COc1ccc(CN2C(=O)C3(OCCCO3)c3cc(Cl)ccc32)cc1
→ -4, -5
CCN(Cc1ccoc1)C(=O)Nc1cccc(C(F)F)c1
→ 11&-3, 7&-6
Cc1[nH]c2ccccc2c1-c1csc(N2CCCC2)n1
→ 3, 2
COc1cccc(CNC(=O)C2CCN(C(=O)[C@H](C)NC(=O)Nc3cc(Cl)ccc3OC)CC2)c1
→ 33, 35
CCOC(=O)C1C(=O)NCC12CCN(C(=O)c1ccc3c(c1)OCO3)CC2 (stereo not given)
→ 6, 18
CCOC(=O)C1(Cc2ccc(F)cc2)CCCN(C(=O)c2cc3nc(C)cc(C)n3n2)C1 (stereo not given)
→ 4, -6
O=c1c([N+](=O)[O-])c(N2CCOCC2)c2ccccc2n1Cc1ccccc1
→ 13, 15
Cc1c(Cl)cccc1NC(=O)Cn1nc(-c2ccccc2)c2sc(N3CCCCC3)nc2c1=O
→ -4, -8
CCC(C)C(NC(=O)c1cc(C(F)(F)F)cc(C(F)(F)F)c1)C(=O)Nc1nnc(-c2ccc(OC)cc2)s1 (stereo not given)
→ -10, 1
COc1cc(O)cc(OC)c1OC
→ -9, -17
COc1ccc(-c2nc(N(CCC(=O)NC(C)c3ccccc3)CCc3ccccc3)c3ccccc3n2)cc1 (stereo not given)
→ -20, -2
Cc1cc(=O)n2c(n1)SCC2CC(=O)N1CCOCC1 (stereo not given)
→ -4, -6
CC(=O)Nc1cccc(-n2cnnc2SC2CCCCC2=O)c1 (stereo not given)
→ 0, -1
COC(=O)CCn1c(C)cc(C(=O)COC(=O)CC(O)(c2ccc(C)o2)C(F)(F)F)c1C (stereo not given)
→ 2, 3
O=S1(=O)N=C(N2CCN(CCO)CC2)c2ccccc21
→ 6, 1

# An excerpt. The share of hits here may be higher or lower than overall.
